T cruzi repl – blocks replication of Trypanosoma cruzi; hit rate 1.4% among 300,000; inhibition, % (no concentration beside the values); T. cruzi beta-gal in NIH3T3, luminescence, 90 h; AID 1885;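 active means mean inhibition across valid replicates above about 55%, limit read from the data; inconclusive means mean below that limit but half or more replicates reach it; inactive means mean below it, under half of replicates reach it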;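 further: signal also drops with host cell toxicity which is not excluded here; 0% = plate median of DMSO wells and 100% = zero luminescence signal; higher percent means less beta-gal luminescence so fewer parasites; stock transfer was 50 nL into about 50 µL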
Beta apoptosis – beta cell apoptosis inhibition | INS-1E cytokine-induced death, ATP luminescence, 48 h; percent of positive-control rescue, neutral wells zero | protection from apoptosis, % (concentration not given with the values) | hit rate 0.8% among 300,000 | AID 435005;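 active means all replicates at 75% or more, or half of them and the mean; inconclusive means half reach 75% but not the mean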;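 further: 0% = cytokine-treated negative control wells and 100% = positive control rescue; higher means more ATP so stronger rescue from cytokine killing; wells of about 40 µL received 100 nL stock; the first replicate is given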
Bfl-1 A1 inh – inhibitors of the anti-apoptotic protein A1, read as caspase activation. MEF A1-2A-BIM cells, Caspase-Glo 3/7 luminescence, 3 h; percent of clofoctol response, vehicle zero. hit rate 0.066% among 330,000. caspase activation, % (no concentration beside the values). AID 2462;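 active means over half of replicate activation scores above 10%, or exactly half above 10 with the replicate mean above 10; inconclusive means replicate mean below 10 yet half the replicates above 10; inactive means over half of replicates below 10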;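 further: wells of about 30 µL received 50 nL stock; many hits fall short of the cut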
RanGTP-Imp inh – disruptors of Ran-importin-beta complex formation – biochemical, FRET, CFP-Ran, YFP-importin-beta, homogeneous, primary screen. cell-free CFP-Ran/YFP-importin-beta FRET ratio. inhibition, % (no concentration beside the values). hit rate 1.1% among 300,000. AID 2216;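 active means most replicates above 15%; inconclusive means exactly half above 15%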;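 further: 0% = DMSO wells and 100% = Ran loaded with GDP instead of GTP; wells of about 40 µL received 100 nL stock; the first replicate is given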
LANA-H2B inh – blocks KSHV LANA binding to histone H2A/H2B; Q9QR71; cell-free LANA-H2A/H2B peptide, fluorescence polarization; inhibition, % (test concentration not listed); hit rate 0.6% among 320,000; AID 2629; in the data active means inhibition mostly above about 10%, no sharp cut-off; inactive means mostly below about 6.7%;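 further: stock transfer was 7.5 nL into about 10 µL; 0% = median of vehicle wells and 100% = median of positive control wells; one replicate is shown; the record names a cut of 25% in any replicate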
AF4-AF9 inh – blocks AF4 peptide binding to human AF9. hit rate 0.47% among 350,000. P42568. AlphaScreen, biotin-AF4 peptide binding to FLAG-AF9. inhibition, % at 10 µM;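 active means every replicate reaching a set inhibition limit, whatever the replicate mean, cut at about 25% in these data; inconclusive means mean inhibition reaches that limit but some replicates miss it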;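 further: 0% = plate neutral control median and 100% = total signal loss; the record names both 10 and 1 µM as test concentration; the first replicate is given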
Target sequence (P42568 whole entry, looked up): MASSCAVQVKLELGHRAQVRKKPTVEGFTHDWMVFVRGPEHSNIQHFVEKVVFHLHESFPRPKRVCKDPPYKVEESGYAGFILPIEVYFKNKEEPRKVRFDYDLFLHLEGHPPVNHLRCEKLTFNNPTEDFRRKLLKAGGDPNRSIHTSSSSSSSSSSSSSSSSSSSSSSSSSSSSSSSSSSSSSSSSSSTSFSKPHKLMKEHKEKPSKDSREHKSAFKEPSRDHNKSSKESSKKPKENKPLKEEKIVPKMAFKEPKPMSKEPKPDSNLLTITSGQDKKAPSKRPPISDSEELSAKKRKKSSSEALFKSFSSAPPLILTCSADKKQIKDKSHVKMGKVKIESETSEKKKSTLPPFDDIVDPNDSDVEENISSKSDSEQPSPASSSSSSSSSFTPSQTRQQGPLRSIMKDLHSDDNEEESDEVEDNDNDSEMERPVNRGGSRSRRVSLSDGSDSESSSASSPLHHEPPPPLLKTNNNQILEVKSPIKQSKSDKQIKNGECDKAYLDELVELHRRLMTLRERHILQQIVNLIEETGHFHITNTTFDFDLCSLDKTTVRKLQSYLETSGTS
Vif A3G – HIV-1 Vif–A3G interaction blockers – biochemical, TR-FRET, GST-Vif 1-94, biotin-A3G peptide, dose response retest, primary screen (AID 1117319); TR-FRET GST-Vif / biotin-A3G peptide binding; higher % means a stronger effect; test concentration not given here; strong numbers were not always called active; one-dose inhibition, %; IC50 in µM for titrated hits; hit rate 0.57% among 260,000;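 active means above the screen mean plus three standard deviations and confirmed in dose response; inconclusive means results disagree or hit not tested in dose response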;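 further: Vif residues 1-94 fused to GST binding biotinylated APOBEC3G peptide 110-148; 0% = full assay without inhibitor and 100% = GST in place of GST-Vif; retest series ran down from 100 µM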
Calb FLC – affects C. albicans growth with fluconazole; C. albicans CaCi-2 (fluconazole-resistant clinical isolate) + fluconazole, Alamar Blue growth, 48 h; growth inhibition, % (no concentration beside the values); hit rate 0.57% among 300,000;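 active means most replicates above 75%; inconclusive means exactly half above 75%; inactive means most below 75%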;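 further: all wells also contain fluconazole at 8 µg/ml as a sub-toxic cotreatment; 0% = median of DMSO wells and 100% = median of geldanamycin control wells; wells of about 8 µL received 7.5 nL stock; the first replicate is given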
Numbers without * were called inactive; ? = inconclusive; . = not tested or not shown; & = joins results of further samples.

compound,T cruzi repl,Beta apoptosis,Bfl-1 A1 inh,RanGTP-Imp inh,LANA-H2B inh,AF4-AF9 inh,Vif A3G,Calb FLC
CS(=O)(=O)c1sc2nc(-c3ccccc3)cc(-c3ccccc3)c2c1N,15,-1,-0.2,0.2,-3.2,.,-10%,-2
CCC(=O)N1CCc2cc(S(=O)(=O)CCC(=O)Nc3ccc(C)c(F)c3)ccc21,-11,.,-0.7,-2.5,8.7,.,7%,-8
O=[N+]([O-])c1ccccc1OCCCNCc1ccccc1,7,6,-0.1,7.6,3.0,3.7,-4%,1
Cc1cc(C)c(S(=O)(=O)N(C2=NCCS2)S(=O)(=O)c2c(C)cc(C)cc2C)c(C)c1,14,1,-0.3,?,3.5,.,12%,-5
Cc1ccc(N2C(=O)c3cccc(Oc4ccc(Cl)cc4)c3C2=O)c(C)c1,24,9,-0.4,-4.1,-2.9,1.5,.,23
COc1cc2c(cc1OC)CN(C(=O)c1cc(S(=O)(=O)N3CCCCC3)ccc1Cl)CC2,15,2,-0.1,3.1,-2.1,-7.4,.,-7
CN(C)c1nc2c(c(=O)[nH]c(=O)n2C)n1CCOc1ccccc1,1,-5,1.2,1.9,9.0,0.2,-13%,-4
O=C(Cc1cccs1)Nc1nnc(CCc2ccccc2)s1,11,-4,0.5,-0.1,2.9,.,19%,3
CC(C)CC(=O)NC(C)C(c1cccs1)N1CCOCC1 (stereo not given),-6,0,0.4,4.7,-0.4,-0.6,-7%,1
N#Cc1c(/N=C/c2ccco2)sc2c1CCC2,-3,-6,0.2,0.4,-2.9,.,?,-6
N#Cc1c(-c2cccc(Br)c2)cc(-c2cccnc2)nc1N,5,8,-0.3,-2.6,-6.0,.,-130%,56
O=[N+]([O-])c1c(C(Cl)Cl)nn(-c2ccccc2)c1N1CCOCC1,2,4,-0.4,-1.0,-1.6,13,.,37
OC1(c2cccnc2)CCN(Cc2nnnn2Cc2ccccc2)CC1,2,-9,0.6,-3.5,6.7,-3.1,11%,-8
COc1ccccc1N1CCN(S(=O)(=O)c2ccc(Cl)s2)CC1,9,8,0.2,4.2,0.7,11,31%,30
CCOC(=O)c1sc(NC(NC(=O)c2ccco2)(C(=O)OC)C(F)(F)F)nc1C (stereo not given),-11,-2,0.0,0.3,1.4,.,7%,1
Cn1ccnc1SCc1cc(=O)[nH]c2ccccc12,-10,-4,1.3,3.1,0.3,-41,-4%,-1
CCOC(=O)CC1ON(C)C(=O)N1c1ccc([N+](=O)[O-])cc1 (stereo not given),-24,6,1.2,1.5,-4.4,.,1%,1
O=C(CSc1ncc(-c2ccc(F)cc2)[nH]1)Nc1cccc(O)c1,9,2,0.5,-0.4,1.5,.,3%,4
Cc1cc2oc(C(=O)N(Cc3ccccc3)C3CCS(=O)(=O)C3)c(C)c2cc1C (stereo not given),20,-15,0.2,-0.2,1.6,1.9,4%,5
O=c1nc(/C=C/c2ccc(-c3ccc(F)cc3)o2)cc(C(F)(F)F)[nH]1,6,-5,-0.6,-76,-2.3,.,26%,16
O=C(Cn1nnc(-c2ccccc2)n1)N1CCN(c2ccc(F)cc2)CC1,-6,-1,0.3,4.9,2.9,-1.9,-2%,-39
COc1ccc(OC)c(NC(=O)NNC(=O)COc2ccc([N+](=O)[O-])cc2)c1,-10,3,-0.9,-1.1,7.0,4.0,.,-2
CCNC(=S)NCCN1CCOCC1,-3,-1,0.3,-2.2,-5.6,.,-3%,-1
Cc1ccccc1NC(=O)c1cc(S(=O)(=O)Nc2cccc(C(=O)O)c2)ccc1Cl,-13,-5,0.5,-0.2,-7.0,-0.7,4%,.
CCc1cc2ccc(C)cc2nc1SCC(=O)N1CCN(C(=O)c2ccco2)CC1,30,-6,0.1,4.6,1.9,.,28%&-11%,-3
CCCCN1Cc2cc(C(=O)c3cc(F)ccc3O)cnc2NC1=O,.,5,-0.4,.,-1.9,.,?,6
NC(Cc1ccc(OC(F)F)cc1)C(=O)O (stereo not given),7,1,0.9,3.4,0.5,3.5,.,-3
COc1ccc(-c2coc3cc(O)cc(O)c3c2=O)cc1,4,0,-3.0,?,-18,-2.7&-0.2,18%,.
CCCCc1ccc(NC(=O)C2CCCC2)cc1,21,-4,-1.4,0.6,-2.4,-8.8,.,-11
CCOC(=O)c1cc2c(ccn2C)n1CC(=O)N1CCC(C)CC1,0,.,0.2,25*,2.6,.,21%,-4
O=C(CN1CCN(S(=O)(=O)c2ccccc2F)CC1)NC1CCCC1,7,1,0.1,8.1,-4.1,-0.6,.,13
N#Cc1c2ccc(OCC(=O)NCc3ccco3)cc2n2ccccc12,-1,0,-1.0,21*,17,-2.1,-4%,6
Cc1ccc(CN(CC(=O)NCCc2ccccc2)C(=O)CCCC(=O)Nc2cc(C)on2)cc1,-8,0,0.1,-1.4,-2.9,.,-1%,-9
Cc1cccc(NC(=O)c2ccc(S(=O)(=O)NCc3cccnc3)cc2)c1,-11,12,1.0,-0.8,10,2.7,?,-4
Cn1ncc(Br)c1C(=O)NC1CCCCC1,-8,-1,-0.6,-2.2,2.4,1.8,.,2
CCOC(=O)c1cnn(-c2ccccc2)c1NC(=O)CSc1nnc(-c2cccs2)n1CC,-13,2,0.0,0.3,-5.5,.,0%,-4
COc1cccc(CNC(=O)CSc2ccc(-c3ccco3)nn2)c1,-3,-5,-0.2,-1.8,4.7,-0.5,-2%,5
CC1CCN(CCCNC(=O)Cn2ncc3c([nH]c4ccccc43)c2=O)CC1,-1,0,0.0,5.0,2.7,3.7,.,-3
CCOC(=O)CSc1nnc(CNc2ccc(Cl)cc2)n1-c1ccccc1,-4,-1,0.1,2.7,-0.7,-20,69%,12
OCCN1CCN(Cc2nc(-c3cccc(Cl)c3)no2)CC1,6,2,-0.1,?,-1.6,.,-6%,-4
CC(C)CC(NC(=O)c1ccc(Cl)cc1)C(=O)O (stereo not given),-20,1,0.0,-5.8,0.6,.,7%,-3
Cc1ccc(S(=O)(=O)NCCc2nc3ccccc3[nH]2)cc1,14,-1,-0.8,0.9,-7.2,-0.3,.,-2
CC(C)(C)c1ccc(SCC(N)=O)cc1,-5,-7,1.7,?,-2.6,.,-2%,81*
CC1(NC(=O)NCCCCCCNC(=O)NC2(C)CCS(=O)(=O)C2)CCS(=O)(=O)C1 (stereo not given),-9,-3,0.2,1.0,0.8,2.3,.,14
CC(=O)N(C(C)=O)N1C(=O)/C(=C/c2ccc(Cl)cc2)SC1=S,7,13,-0.2,0.3,-5.8,.,-3%,6
COc1ccccc1CCC(=O)N1CCC(n2nccc2NC(=O)C2CCOC2)CC1 (stereo not given),-4,-2,0.1,0.0,0.7,-2.1,.,-4
Cc1ccc(Cl)cc1N1CCN(S(=O)(=O)c2ccc3[nH]c(=O)c(=O)[nH]c3c2)CC1,-1,1,-0.4,-0.2,-2.4,-0.9,-11%,-1
Cc1cccc(-c2n[nH]c([N+](=O)[O-])n2)c1,2,-1,0.2,-2.4,1.8,.,-2%,21
O=C(CCSCc1cccc(Cl)c1)NCCc1ccc(Cl)cc1,-1,.,0.6,-1.1,2.2,.,21%,4
CC(C)C[C@H](CO)Nc1nc(N(C)c2cccc(Cl)c2)c2ncn(C(C)C)c2n1,18,-1,-1.7,1.6,4.4,1.9,-1%,22
CN(CC(=O)Nc1ccccc1Br)CC(=O)Nc1ccccc1C(F)(F)F,-2,0,0.5,4.4,-0.2,-16,-3%,1
CCc1nc(N)c(C#N)c(-c2ccccc2OC)c1C,3,-3,0.1,-0.5,-9.5,.,10%,-1
COc1ccc(C2NC(=O)CS2)cc1OC (stereo not given),4,1,-0.5,1.0,0.3,.,3%,-26
CCc1ccc(OCC(=O)N/N=C(\C)c2ccc3c(c2)OCCO3)cc1,5,-4,-0.6,4.1,-0.5,.,-1%,-4
Cc1ccc(S(=O)(=O)NCC(C)NS(=O)(=O)c2ccccc2[N+](=O)[O-])cc1 (stereo not given),16,-2,-0.3,-0.3,-2.3,-1.1,.,5
COc1ccc(CNC(=O)CN2CCC(n3nnc4cc(F)ccc43)CC2)cc1,4,3,-0.4,-2.3,-1.1,0.2,-6%,7
CCC(=O)N1N=C(c2ccc(NS(=O)(=O)c3ccccc3)cc2)CC1c1ccco1 (stereo not given),.,2,0.2,.,3.1,-1.6,.,.
Cn1c(SCc2ccccc2)nnc1-c1ccncc1,10,1,-0.2,4.2,-6.9,-1.6,-3%,-7
CCn1c(SCC(=O)c2ccccc2)nnc1-c1cccs1,5,-5,0.0,0.3,-3.2,.,2%,30
COc1ccc(-c2nc(S(=O)(=O)c3ccc(C)cc3)c(N3CCCC3)o2)cc1,-5,.,0.2,9.9,2.7,.,6%,39

Later entries:
compound,T cruzi repl,Beta apoptosis,Bfl-1 A1 inh,RanGTP-Imp inh,LANA-H2B inh,AF4-AF9 inh,Vif A3G,Calb FLC
COc1cc(C2NC(=S)NC(C)=C2C(=O)Nc2cc(C)cc(C)c2)ccc1O (stereo not given),-4,2,0.3,0.8,2.6,0.8,-5%,12
CCOc1ccccc1NC(=O)Cc1coc2cc(C)ccc12,10,0,0.7,0.7,-3.5,.,0%,-13
CCOc1ncccc1C(=O)Nc1nc(SC)ns1,-8,5,-2.4,?,-2.9,1.5,5%,-6
COc1ccc(CCNC(=O)CN(c2cc(C)cc(C)c2)S(=O)(=O)c2c(C)noc2C)cc1OC,6,1,0.5,1.3,-0.9,-15,-3%,-1
CCOC(=O)c1ccccc1NC(=O)CSc1nnc(C)c(=O)[nH]1,1,.,0.9,3.5,4.4,-0.4,.,-3
Cc1ccc(N=c2oc3cc(O)ccc3cc2C(N)=O)cc1,60*,4,0.5,181*,1.8,.,0%,0
O=C(Nc1ccc(S(=O)(=O)Nc2ccc(Cl)cc2)cc1)C1CCCO1 (stereo not given),-44,18,-1.4,0.7,2.9,.,2%,8
Cc1ccc(N2CC(C(=O)Oc3cccc(N4C(=O)CCC4=O)c3)CC2=O)cc1 (stereo not given),-8,-9,-0.9,3.9,-0.1,.,-7%,0
COc1ccc(CCC(=O)Nc2nnc(C(C)(C)C)s2)cc1,-2,-1,?,0.6,0.5,0.4,-2%,-1
Cc1c(Cl)c([N+](=O)[O-])nn1Cc1ccc(C(=O)N/N=C\c2cccc(Br)c2)o1,28,19,0.8,-2.9,-5.6,.,13%,24
O=C(CCC1CCCN(C(=O)c2ccc3c(c2)OCCO3)C1)NCc1ccccc1F (stereo not given),-5,0,0.3,-0.5,-2.8,-2.0,1%,-5
C=C(C)C(=O)Nc1cccc(C2=NOC3(C2)C[C@H](C(N)=O)N(C(=O)CC)C3)c1 (stereo not given in full),-14,-2,2.8,-4.1,-1.8,.,.,-9
Cn1c(=O)[nH]c(=O)c2c1nc(NCc1ccccc1)n2CC(O)c1ccccc1 (stereo not given),8,1,-0.4,-0.3,-3.8,.,1%,36
CSc1nc(C)cc(OCCNS(=O)(=O)c2cc(C)ccc2C)n1,-9,-9,2.2,-2.6,0.6,.,-4%,4
Nc1nc(Nc2ccc(Cl)cc2)c(NC=O)c(=O)[nH]1,-18,-8,0.9,-1.1,-0.9,3.5,.,0
